Mtb bLac sens: beta-lactam sensitization of Mtb H37Rv. 330,000 compounds, 0.27% hits. inhibition, % at 25 µM. M. tuberculosis H37Rv growth with meropenem, percent inhibition; hits of this screen are not shown here;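 active = about 74% or more and at least 40 points above the plate without the antibiotic, then above 30% in a dose series; inconclusive = first-round hits that could not be retested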;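 note: growth measured after seven days incubation then overnight dye step; 0% = bacteria only wells and 100% = bacteria with antibiotic; twin plates without the antibiotic show which effects depend on it; some results filed as inactive read as strong as hits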
* = called active by the depositor; ? = inconclusive; & = joins results of further samples. These rows are one share of the data; the hit share may differ from the screen's.

SMILES,Mtb bLac sens
O=C(Nc1ccnn1C1CCN(C/C=C/c2ccccc2)CC1)c1ccccc1Cl,?
O=C(c1ccc(OC2CCN(Cc3ccccc3C(F)(F)F)CC2)cc1)N1CCCCC1,?
NS(=O)(=O)c1cc2c(cc1Cl)NC(C1CC3C=CC1C3)NS2(=O)=O (stereo not given),1
COc1ccc(S(=O)(=O)N2CCCCCC2)cc1NC(=O)CN(C)Cc1ccc2c(c1)OCO2,2
O=C(NCCOc1ccccc1)c1ccc2n[nH]nc2c1,-4
Cc1cccc(NC(=O)CCC(=O)N2CCOCC2)n1,1
COc1ccc(CCNC(=O)COC(=O)c2ccc(C)s2)cc1,-2
COc1cccc(CN(C)C(=O)CCC(=O)c2cc(Br)ccc2OC)c1,-8
CC(=O)Nc1ccc(S(=O)(=O)NCC(=O)OCC(=O)c2ccc[nH]2)cc1,-4
O=C(COC(=O)CNS(=O)(=O)c1c(F)cccc1F)NC(=O)NC1CCCCC1,2
NC(=O)C1CC(=O)N(c2ccc(OCC(=O)Nc3ccc(F)cc3)cc2)C1 (stereo not given),-15
CCOc1ccc(NC(=O)CN(C)C(=O)Cn2c(=O)cnc3ccccc32)cc1OCC,1
O=C(COC(=O)c1ccc[n+]([O-])c1)Nc1cc([N+](=O)[O-])ccc1Cl,0
COc1ccc(CNC(=O)CN2C(=O)NC(c3ccccc3)(c3ccccc3)C2=O)cc1,-6
O=C(COC(=O)c1cc(=O)[nH]c2ccccc12)Nc1ccccc1F,-2
C#CCOCCOCCOCCNc1nc(N2CCN(C(=O)C([C@@H](C)O)n3cc([C@@H](N)CCCCN)nn3)CC2)nc(N2CCN(C(=O)[C@H](CCCCN)n3cc([C@@H](N)CC(N)=O)nn3)CC2)n1 (stereo not given in full),2
CN(C)CC/C=C1/c2ccc(F)cc2Sc2ccc(Cl)cc21,94
CNc1snc(C)c1C(=O)OC(C)C(=O)Nc1cccc(OC)c1 (stereo not given),-8
CC(=O)c1cccc(N2C(=O)CC(N3CCN(S(=O)(=O)c4ccccc4F)CC3)C2=O)c1 (stereo not given),2
O=C(OCC#CCSc1nnc(-c2cccc3ccccc23)o1)c1ccc2ccccc2c1,1
O=C1Cc2cc(S(=O)(=O)Nc3ccc(N4CCOCC4)cc3)ccc2N1,-3
CC(C)(C)CNC(=O)c1cccc2c1C(=O)c1ccc(-c3cc4ccccc4o3)cc1S2(=O)=O,-3
Cc1ccc(NC(=O)CCCOc2ccccc2)cc1S(=O)(=O)N1CCOCC1,-4
CC(=O)c1ccc(OCC(=O)Nc2cccc(S(=O)(=O)N3CCCC3)c2)cc1,-3
CC1(C)CC(NC(=O)c2ccc(Cl)cc2Cl)CC(C)(C)N1,-8

Retrieved one by one from the list above:
SMILES,Mtb bLac sens
O=C(COC(=O)CNS(=O)(=O)c1c(F)cccc1F)NC(=O)NC1CCCCC1,2
COc1ccc(CCNC(=O)COC(=O)c2ccc(C)s2)cc1,-2
O=C(Nc1ccnn1C1CCN(C/C=C/c2ccccc2)CC1)c1ccccc1Cl,?

Continuation.
SMILES,Mtb bLac sens
COc1ccccc1CN(C)c1ccc(S(=O)(=O)N2CCN(C)CC2)cn1,4
COc1ccc(CN(C)C(C)C(=O)Nc2ccc(S(=O)(=O)N3CCCCC3)cc2)cc1F (stereo not given),1
O=C(COC(=O)C12CC3CC(CC(Cl)(C3)C1)C2)Nc1ccccc1,-1
CC1CCN(C(=O)c2nc[nH]c2C(=O)N2CCc3ccccc3C2)CC1,7
CN(c1ccccc1)S(=O)(=O)c1ccc(C(=O)NCc2ccc(F)cc2)cc1,-11
CN(C(=O)c1cccc(NC(=O)C2CCCN(C(=O)OC(C)(C)C)C2)c1)C1CCCC1 (stereo not given),2
O=C(NCc1ccccc1F)c1cccc(S(=O)(=O)N2CCCCCC2)c1,-1
C[C@@H]1CN([C@@H](C)CO)C(=O)c2cc(NC(=O)Nc3ccccc3)ccc2O[C@H]1CN(C)C(=O)Nc1cccc2ccccc12,-1
Cc1nnc(NC(=O)c2ccc(S(=O)(=O)N3CCCCC3)cc2)s1,-2
CCc1cc2c(COC(=O)c3cc(S(=O)(=O)N4CCOCC4)ccc3F)cc(=O)oc2cc1O,2
C=C[C@@H]1c2cc(C)ccc2N(S(=O)(=O)c2ccc(C)cc2)[C@H](c2ccccc2C(F)(F)F)C1(C#N)C#N,2
N#Cc1ccc(OCC(=O)NNC(=S)NC(=O)C2CC2)cc1,-1
C=C(CC[C@@H](O)C(C)(C)O)[C@H]1CC[C@]2(C)[C@@H]1CCC1[C@@]3(C)CC[C@H](O)C(C)(C)C3CC[C@]12C (stereo not given in full),2
Cc1noc(C)c1NC(=O)N(C)C[C@H]1Oc2ccc(NS(=O)(=O)c3cccs3)cc2C(=O)N([C@H](C)CO)C[C@@H]1C,-6
CCOC(=O)[C@H]1[C@H]2COc3ccc(OC)cc3[C@@H]2N2C(=O)CN(CCc3c[nH]c4ccccc34)C(=O)[C@@]12C,-4
O=C(C1COc2ccccc2O1)N1CCCCC1 (stereo not given),2
C[C@H]1CCC(=O)N(CCSc2ccc(Br)cc2)CC1,-6
Cc1cccc(-n2ncc3c2CCCC3NC(=O)CCCN2CCCCC2=O)c1C (stereo not given),?
CCCN(CC(=O)Nc1ccccc1OC)C(=O)C1=COCCO1,0
CCCc1ncc(C[n+]2ccccc2C)c(N)n1,4
Cc1cc(C(=O)Nc2cccc3c2O[C@@H](CN(C)S(=O)(=O)c2ccccc2)[C@H](C)CN([C@@H](C)CO)C3=O)n(C)n1,3
COC(=O)C1=C(c2cccc(C#N)c2)C[C@@H]2CC[C@H]1N2C(=O)NCCCOC(C)C,16
Cc1noc(C)c1NC(=O)N(C)C[C@H]1Oc2ccc(NC(=O)NC(C)C)cc2C(=O)N([C@H](C)CO)C[C@@H]1C,2
COc1ccc(NC(=O)N(C)C[C@H]2Oc3c(NS(=O)(=O)c4ccc(OC)cc4)cccc3C(=O)N([C@H](C)CO)C[C@@H]2C)cc1,14
CC(C)(C)N(Cc1ccccc1)C(=O)COC(=O)c1ccc(Br)o1,9
CC(C)N(Cc1ccccc1)C(=O)COC(=O)CCC(=O)c1ccc(F)cc1,-1
COC(=O)c1ccc(/C=C/C(=O)OCC(=O)NCc2cccs2)cc1,-4
CC(=O)Nc1ccc(C(=O)COC(=O)c2cccs2)c(F)c1,9
O=C(NCC(c1ccco1)N1CCCCC1)c1cccnc1 (stereo not given),3
Cc1ccc(NC(=O)COC(=O)C2CCN(c3ccc(C(F)(F)F)cn3)CC2)cc1C,0
CCC[C@@H](CN1CCC[C@H]1CN1C(N)=NC[C@@H]1Cc1ccccc1)N1C[C@@H](Cc2ccccc2)N(CCCC2CCCC2)C1=N,100
C[C@H](CO)N1C[C@H](C)[C@@H](CN(C)S(=O)(=O)c2cccs2)Oc2c(NC(=O)CCC(F)(F)F)cccc2C1=O,-8
Cc1cc(=O)c(C(=O)Nc2ccc(N3CCOCC3)cc2N2CCOCC2)nn1-c1ccccc1Cl,-2
CCN(CC)C(=O)c1ncn(Cc2ccccc2)c1C(=O)N(CC)CC,2
O=C(c1cc2ccccc2o1)N1CCN(S(=O)(=O)c2ccc(Cl)s2)CC1,?
Cc1noc(NS(=O)(=O)c2ccc(NC(=O)c3cccc(S(=O)(=O)Nc4ccccc4F)c3)cc2)c1C,-1
Cc1cc(C)n2nc(C(=O)OCC(=O)N(C)C3CCS(=O)(=O)C3)nc2n1 (stereo not given),-2
O=C(COC(=O)c1ccc(F)c(S(=O)(=O)N2CCOCC2)c1)NC1CC1,6
Cc1nnc(SCC(=O)NNC(=O)c2ccccc2)n1N,2
NS(=O)(=O)c1ccc(NC(=O)CSc2nnc(C3CC3)n2C2CC2)cc1,-10
CCN1C(=O)c2cccc3c(S(=O)(=O)N(C(C)=O)c4ccc(OC(C)=O)cc4)ccc1c23,-4
O=C(COc1ccc(Cl)cc1Cl)N1CCNC1=O,-7
Cc1ccccc1NC(=O)Cc1nc(COC(=O)c2cccnc2Cl)cs1,2
O=C(CNC(=O)c1cccc(F)c1)NC1CC1,2
Cc1ccc(C)c(NC(=O)COC(=O)c2c(C)nn(-c3ccccc3)c2C)c1,1
COc1ccc(C(=O)C(C)OC(=O)COc2ccccc2)cc1 (stereo not given),6
O=C(NCC1CCCO1)c1ccccc1NS(=O)(=O)c1cccc([N+](=O)[O-])c1 (stereo not given),1
Cc1nn(-c2ccccc2)c(C)c1CNC(=O)c1ccc(S(=O)(=O)NCc2ccco2)cc1,3
C[C@]12CCC3C(CC[C@H]4C[C@@H](O)CC[C@]34C)C1C[C@@H](O)[C@H]2O (stereo not given in full),19
O=C(Cn1cnc([N+](=O)[O-])c1)Nc1ccccc1C(F)(F)F,-5

Next part:
SMILES,Mtb bLac sens
Cc1ccc(S(=O)(=O)N2CCOCC2)cc1NS(=O)(=O)c1ccc(F)c(F)c1,-4
O=C(CNC(=O)c1ccc(Cl)cc1Cl)OCCOc1ccccc1,16
COc1ccccc1-c1oc2ccccc2c1-c1ccc2c(c1)OCO2,19
CC(C)CC(=O)C(=O)O,1&-3
C=CC[C@@H](CC(=O)N[C@@H](CO)Cc1ccccc1)C(=O)NC[C@@H](OC(=O)[C@@H](CC=C)CC(=O)OC(C)(C)C)c1ccccc1,-5
CC1CCC(NC(=O)CSc2nnc(-c3cccnc3)o2)CC1 (stereo not given),-1
Cc1ccc(NC(=O)[C@@H]2CCCN2C(=O)c2cccs2)cc1S(=O)(=O)N1CCCCC1,5
COc1ccc2oc(C(=O)OCC(=O)NCCc3ccc(S(N)(=O)=O)cc3)c(C)c2c1,-2
CCOC(=O)[C@H]1[C@H]2COc3ccc(OC)cc3[C@@H]2N2C(=O)c3ccccc3NC(=O)[C@@]12C,0
Cc1ccc(C2=NN(C(=O)CN3CCN(C4CCS(=O)(=O)C4)CC3)C(c3ccco3)C2)cc1 (stereo not given),-9
O=C(NC1CCCC1)c1ccc(Cl)c(S(=O)(=O)N2CCOCC2)c1,-1
Cc1ccc(S(=O)(=O)N(CC(=O)Nc2cccnc2)c2ccccc2C)cc1,1
CCOC(=O)CC[C@H](NC(=O)Cn1cnc2c(SC)nc(N)nc21)C(=O)OCC,-8
CCOc1ccc(CNS(=O)(=O)c2c(C)nc3scc(C)n3c2=O)cc1OC,3
COCCn1c(C)cc(C(=O)CSc2nnnn2C2CCCC2)c1C,2
COc1ccc(OC(=O)c2cccc(S(=O)(=O)N3CC(C)OC(C)C3)c2)cc1 (stereo not given),-1
CCOC(=O)c1c(C)[nH]c(C)c1C(=O)COC(=O)CCc1ccccc1,3
Cc1noc(C)c1COc1ccc(C(=O)NCCOc2ccccc2)cc1,3
Cc1cc(NC(=O)CN2C(=O)NC(C)(c3ccc(Cl)cc3Cl)C2=O)no1 (stereo not given),-6
CC(C)(C)OC(=O)C[C@@H]1C/C=C\C[C@@H](CC(=O)NCCO)C(=O)N[C@H](Cc2ccccc2)COC1=O,-2
Cc1ccnc(NC(=O)C(Cc2ccccc2)NC(=O)c2ccccc2)c1 (stereo not given),12
Cc1ccc(S(=O)(=O)N2CCOCC2)cc1NC(=O)COc1cccc(-n2cnnn2)c1,-7
O=C(NCc1ccc(F)cc1)C(c1ccco1)N(C(=O)c1csnn1)C1CC1 (stereo not given),-8
CN(Cc1ccc(F)cc1)C(=O)CN1C(=O)c2ccccc2S1(=O)=O,-7
Cc1ccc(S(=O)(=O)N2CCOCC2)cc1NC(=O)CSc1nnnn1C1CCCC1,-2
COc1ccc(/C=N/NC(=O)c2sccc2C)c2ccccc12,-5
COc1ccc(C(=O)NCC(=O)OCC(=O)NCc2ccco2)cc1,0
Nc1ccn(CC(=O)NCCNc2ccc([N+](=O)[O-])cn2)c(=O)n1,-2
CCOc1ccc(S(=O)(=O)N2CCNC(=O)C2)cc1,3
C=CC[C@H](CC(=O)NCCO)C(=O)N[C@@H](COC(=O)[C@H](CC=C)CC(=O)OC(C)(C)C)Cc1c[nH]c2ccccc12,-2
Cc1ccc(S(=O)(=O)N2CCN(C(=O)COC(=O)C3CC3C)CC2)c(C)c1 (stereo not given),-4
CN1CCN(S(=O)(=O)c2ccc(N3CCN(c4ccccc4Cl)CC3)nc2)CC1,-3
CC(C)C[C@H]1CN=C(Nc2ccccc2)N1CCc1cccc(F)c1,-12
NC(=O)Nc1ccc(C(=O)OCC(=O)Nc2cccc(S(=O)(=O)NC3=NCCC3)c2)cc1,-5
CC1CC(=O)Nc2ccccc2N1C(=O)CN1C(=O)C(=O)N(C)C1=O (stereo not given),2
O=C(CCN1CCN(c2ccccc2)CC1)NNC(=O)Cc1ccccc1Cl,-5
O=C(c1cccs1)N1CCN(C(=O)c2cn(-c3ccccc3)nc2-c2ccccc2)CC1,8
CCOC(=O)[C@H]1[C@H]2COc3ccc(C)cc3[C@@H]2N2C(=O)CN(CC3CCCO3)C(=O)[C@@]12C (stereo not given in full),-9

Some of these compounds in order of count of non-hydrogen atoms, ascending:
SMILES,Mtb bLac sens
COc1ccc(/C=N/NC(=O)c2sccc2C)c2ccccc12,-5
CC(C)C[C@H]1CN=C(Nc2ccccc2)N1CCc1cccc(F)c1,-12
O=C(CCN1CCN(c2ccccc2)CC1)NNC(=O)Cc1ccccc1Cl,-5
CN1CCN(S(=O)(=O)c2ccc(N3CCN(c4ccccc4Cl)CC3)nc2)CC1,-3

Assay outcomes deposited in PubChem by Southern Research Specialized Biocontainment Screening Center.
